Assay outcomes: PubChem, National Center for Advancing Translational Sciences (NCATS)
NS1 function inh: blocks influenza NS1 protein function | S. cerevisiae slowed by influenza A NS1, growth recovery by OD600 | Potency, µM (titrated, usually from 46.1 µM), without a hit: at the top dose activity, positive = more growth | 0.4% of 270,000 active; note: actives are rising curves; nearly all actives have a fitted effect of over 50% in size
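S. cerevisiae expressing influenza A NS1, grown in glucose, washed, then diluted 1:100 into pH 6.0 -URA galactose medium with 23 nl compound. Growth recovery read as OD600; NS1-free strain serves as control.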
Cruzain Triton: inhibitors of Trypanosoma cruzi cruzain with detergent; P25779; Potency, µM, for the others: max response, negative = inhibition, hits mostly inhibitors; purified cruzain, Z-FR-AMC fluorescence, 0.01% Triton; 0.43% of 200,000 active; AID 1478; active = well fitted curve in the direction sought with a large enough effect; inconclusive = small, poorly fitted or top-dose-only effect, or another doubt; inactive = no such curve, though single readings can be large; an effect the other way counts as inactive or inconclusive;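 note: plate controls were neutral wells for no effect and buffer without enzyme for full effect; nearly all actives have a fitted effect of over 40% in size; top concentration of the series not given in the record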
Target sequence (P25779 123-467 limits assumed): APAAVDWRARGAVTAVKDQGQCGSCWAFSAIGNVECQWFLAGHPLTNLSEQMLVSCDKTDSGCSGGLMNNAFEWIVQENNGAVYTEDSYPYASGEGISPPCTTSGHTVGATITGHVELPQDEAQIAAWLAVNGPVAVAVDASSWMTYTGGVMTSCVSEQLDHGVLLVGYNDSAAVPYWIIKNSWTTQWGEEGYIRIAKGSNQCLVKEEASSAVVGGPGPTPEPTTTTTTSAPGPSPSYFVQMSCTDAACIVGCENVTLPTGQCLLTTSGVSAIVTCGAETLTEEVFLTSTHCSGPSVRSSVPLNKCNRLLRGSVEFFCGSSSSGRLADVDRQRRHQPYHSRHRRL
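Read-out: AMC fluorescence (360 nm excitation, 450 nm emission), four reads over 2 min, first-to-third difference used. Conditions: cruzain 1.5 nM, Z-FR-AMC 2 uM, pH 5.5 acetate, 5 mM DTT, 0.01% Triton X-100.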
SARS PLpro yeast: inhibitors of SARS-CoV papain-like protease in yeast; S. cerevisiae expressing SARS-CoV PLpro, growth rescue; control for the full effect not named in the record; Potency, µM (series often up to 32.9 µM), for the others: top-dose activity, positive = growth rescue; 0.19% of 330,000 active; note: 0% is about no effect; nearly all actives have a fitted effect of over 55% in size; growth read by luminescence after 48 h
MARV entry inh: Marburg virus entry inhibition. AID 540276. Potency, µM (titrated, usually from 37.8 µM), inactives show top-dose activity change, negative = inhibition, most hits filed as inhibitors. 1.8% of 300,000 active. Marburg virus pseudotyped entry inhibition, cell reporter; control for the full effect not named in the record; about a third of the inactives were read at about 46 µM; active = well fitted inhibition curve with a large enough effect; inconclusive = small, poorly fitted or top-dose-only effect, or effect the other way; inactive = flat fitted curve, though single readings scatter; tested in HEK293 cells; about a fifth of its hits are not listed in these tables; note: % is set by controls: 0 for no effect and ±100 for the full control effect; luciferase read-out
StopGo reporter: lowers the luciferase signal of an FMDV 2A StopGo reporter. human cells with a luciferase reporter of 2A StopGo recoding; control for the full effect not named in the record. Potency, µM (titrated, usually from 57.9 µM), for the others: top-dose signal change, negative = less light. 1.2% of 410,000 active; active = well fitted falling curve with a large enough effect; inconclusive = small, poorly fitted or top-dose-only effect; inactive = no such curve, though single readings can be large or run the other way; tested in HEK293T cells; note: % is set by controls: 0 for no effect and ±100 for the full control effect; nearly all actives have a fitted effect of over 45% in size; luciferase light after 4 h
RE007 growth inh: less growth of the S. pombe RE007 Vpr strain | 0.21% of 360,000 active | AID 651644 | Potency, µM (top dose mostly 92.2 µM), without a hit: top-dose activity change, negative = less growth | S. pombe RE007 Vpr strain, BacTiter-Glo ATP luminescence, 24 h; control for the full effect not named in the record; active = well fitted falling curve with a large enough effect; inconclusive = small, poorly fitted or top-dose-only effect; inactive = no such curve, though single readings can be large or run the other way;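 note: % is set by controls: 0 for no effect and ±100 for the full control effect; nearly all actives have a fitted effect of over 50% in size; the assay follows cell death caused by Vpr and the record does not say whether a fall means rescue or toxicity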
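Fission yeast strain RE007, carrying one chromosomally integrated HIV-1 vpr copy, was seeded at OD 0.01 in PMG+AL medium with 23 nL pinned compound. After 24 h at 30 °C and 99% humidity, viability was read by BacTiter-Glo luminescence.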
LASV entry inh: blocks Lassa virus binding to or entry into cells; Lassa virus pseudotype entry inhibition, cell reporter; control for the full effect not named in the record; Potency, µM (highest dose often 37.9 µM), for inactives: at the top dose activity change, negative = inhibition, most hits filed as inhibitors; 1.2% of 300,000 active; active means well fitted inhibition curve with a large enough effect; inconclusive means small, poorly fitted or top-dose-only effect, or effect the other way; inactive means flat fitted curve, though single readings scatter; tested in HEK293 cells; note: % is set by controls: 0 for no effect and ±100 for the full control effect; nearly all actives have a fitted effect of over 50% in size; luciferase read-out
Cruzain noTriton: cruzain (T. cruzi) inhibition without detergent; purified cruzain, Z-FR-AMC fluorescence, no detergent; Potency, µM, inactives show max response, negative = inhibition, most hits filed as inhibitors; 2.3% of 200,000 active; AID 1476; active = well fitted curve in the direction sought with a large enough effect; inconclusive = small, poorly fitted or top-dose-only effect, or another doubt; inactive = no such curve, though single readings can be large; an effect the other way counts as inactive or inconclusive;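 note: plate controls were enzyme without inhibitor for no effect and buffer without enzyme for full effect; nearly all actives have a fitted effect of over 40% in size; top concentration of the series not given in the record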
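Purified cruzain at 1.5 nM, pre-incubated 15 min with compound at room temperature in 100 mM sodium acetate pH 5.5, 5 mM DTT, 0.00005% Triton X-100. Reaction started with 2 uM Z-FR-AMC; AMC fluorescence increase over 60 s gives rate.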
Starred values were filed as active, the others as inactive; ? = inconclusive; . = no result given; [ ] = dose if it differs, or a comment. Unless noted, calls come from the whole dose curve; as a rule, active means well fitted rising curve with a large enough effect; inconclusive means small, poorly fitted or top-dose-only effect; inactive means no such curve, though single readings can be large or run the other way. Potency is the fitted concentration of half-maximal effect.

SMILES	NS1 function inh	Cruzain Triton	SARS PLpro yeast	MARV entry inh	StopGo reporter	RE007 growth inh	LASV entry inh	Cruzain noTriton
CCOc1ccc2nc(NC(=O)NC3CCCCC3)sc2c1	-0.7%	.	0.0%	3.6%[46.1 µM]	40.9%[activator]	2.2%	?	.
COc1ccc(CC(=O)OCC(=O)Nc2ccc(F)cc2)cc1	.	.	0.5%	9.9%	-0.9%	?	?	.
CC(=O)c1cc(CN2CCN(CCC(C)C)C(CCO)C2)cs1 (configuration not stated)	-3.0%	.	0.8%	2.1%	-17.5%	-5.9%	.	.
Cc1cc(N/C(=N\S(=O)(=O)c2ccc(F)cc2F)c2ccccc2)no1	-10.1%	-2.4%	0.0%	-1.9%	3.6%	8.0%	-22.5%	-20.0%
O=C(Cc1ccccc1[N+](=O)[O-])NCc1ccco1	.	.	-2.4%	-10.4%[46.1 µM]	21.4%	7.5%	5.3%	.
CSCc1nnc(NC(=O)c2ccc(S(=O)(=O)N(C)C)cc2)o1	.	.	-2.1%	?	-20.0%	5.6%	-8.0%	.
CCOc1cc(/C=C2/C(=O)NN(c3cccc(Cl)c3)C2=O)ccc1O	1.2%	.	-9.8%	9.2%[46.1 µM]	-16.6%	1.9%	-6.6%[46.1 µM]	.
CCC(=O)NC1=C(C#N)C2(CCCC2)Cc2ccccc21	-0.5%	0.5%	-6.5%	7.4%	-20.6%	4.6%	-1.3%	-1.9%
COc1ccc(CCNC(=O)C(=O)NCC2CCCN2S(=O)(=O)c2cc(C)ccc2C)cc1 (configuration not stated)	.	.	2.0%	?	?	8.4%	11.2µM*	.
COc1ccc(NC2=CC(c3ccc(OC)cc3)N(c3ccc(OC)cc3)C2=O)cc1 (configuration not stated)	12.6%	.	2.8%	.	3.7%	13.0%	.	.
COc1cc(/C=N/NC(=O)c2cccc3ccccc23)cc(OC)c1OC	6.3%	.	1.7%	?	-23.9%	-3.5%	-24.4%[46.1 µM]	.
O=C(O)CCn1cc(/C=C/C(=O)c2ccc(Cl)cc2)c(-c2cccc(Br)c2)n1	-3.3%	.	-3.8%	-9.0%[46.1 µM]	25.1µM*	4.0%	?	.
CC(C)C[C@H](NC(=O)c1nc[nH]c1C(=O)N1CCc2ccccc2C1)C(=O)OC(C)(C)C	-2.7%	.	-0.5%	.	?	4.4%	.	.
Cc1ccc(NC(=O)Cn2c(=O)n(-c3ccc(C)cc3)c(=O)c3ccc(C(=O)NCc4ccccc4Cl)cc32)cc1	.	-0.6%	.	2.2%[46.1 µM]	0.0%	.	?	-2.3%
COc1ccc(-c2noc(CCC(=O)NCc3ccc(OC)cc3OC)n2)cc1	.	-4.4%	.	?	-6.0%	.	-21.7%[46.1 µM]	-6.0%
CC(=O)N1CCN(C(=S)c2ccc(-c3ccc(Cl)cc3)o2)CC1	-9.5%	8.91µM*	1.9%	?	17.5%	-7.5%	-21.9%	?
O=C1/C(=C/N(C(=O)c2ccco2)c2ccc(Cl)cc2)Sc2ccccc21	-18.8%	-7.0%	-11.9%	?	?	?	?	?
CCOC(=O)c1ccccc1NC(=S)N1CCN(C(=O)c2ccco2)CC1	11.2%	.	-2.5%	?	21.5%	13.0%	?	.
CCOc1ccc(NC(=O)CSc2nc3ccsc3c(=O)n2C(C)CC)cc1 (configuration not stated)	.	0.5%	.	.	-21.9%	.	-4.8%[46.1 µM]	6.4%
O=C1Nc2ccc(NS(=O)(=O)c3cccs3)c3cccc1c23	-10.5%	-2.6%	5.2%	6.2%	22.1%	7.8%	-10.4%	-4.2%
O=c1[nH]c(=S)[nH]c2nc(-c3ccccc3)cnc12	.	.	.	?	8.9%	-1.7%	6.2%[46.1 µM]	.
Cc1cccc(CSCc2ccc(C(=O)NC3CCCC3)o2)c1	.	.	-7.0%	?	6.5%	12.4%	2.3%[46.1 µM]	.
CC1=NCCN1CCNC(=O)Nc1ccc(C(C)(C)C)cc1	0.6%	.	-0.6%	-9.3%[46.1 µM]	-11.0%	1.7%	8.3%[46.1 µM]	.
O=C(COc1cccc(C(F)(F)F)c1)NCC(c1ccco1)N1CCCCC1 (configuration not stated)	.	.	-0.2%	?	-5.6%	-12.9%	9.7%	.
O=C(NCc1cccnc1)c1cc(S(=O)(=O)N2CCCCC2)ccc1Cl	-9.1%	0.6%	-1.1%	-7.9%	-11.3%	46.3%	23.6%	-10.0%

More compounds
SMILES	NS1 function inh	Cruzain Triton	SARS PLpro yeast	MARV entry inh	StopGo reporter	RE007 growth inh	LASV entry inh	Cruzain noTriton
O=C(NCCc1ccncc1)Nc1ccccc1Cl	-2.6%	1.9%	-0.7%	13.6%	.	0.5%	-11.1%	-6.7%
COc1ccccc1NS(=O)(=O)c1cccc(C(=O)NC2CCN(Cc3ccccc3)CC2)c1	.	.	5.7%	?	?	-9.7%	-28.1%	.
COc1ccccc1CNc1ncnc2nc[nH]c12	-12.5%	3.0%	7.4%	-36.4%	?	2.6%	7.6%	8.5%
Cc1sc2ncn(Cc3ccccc3F)c(=O)c2c1C	-2.6%	.	-0.3%	-1.8%[46.1 µM]	15.5%	8.3%	1.5%[46.1 µM]	.
COc1cc(C)ccc1OCCSc1nc2ccc(NC(=O)c3ccco3)cc2s1	.	-7.0%	.	-16.3%[46.1 µM]	?	.	-18.7%[46.1 µM]	?
CC1CCN(c2nc3ccccc3nc2C(C#N)C(=O)NC2CCCCC2)CC1 (configuration not stated)	-12.4%	-4.2%	2.6%	-5.8%	.	.	.	20µM*
O=C1CC(N(CCc2ccccc2)C(=S)Nc2ccccc2)C(=O)N1c1ccc(Br)cc1 (configuration not stated)	?	-3.8%	-54.7%	?	-1.8%	-0.9%	?	?
COc1ccccc1C(=O)OCCN=C1NS(=O)(=O)c2ccccc21	-6.6%	.	3.1%	17.2%[46.1 µM]	16.0%	-7.5%	5.8%[46.1 µM]	.
CCCn1c(N)c(N2CCCCC2)c(=O)n(CC(=O)Nc2ccc(OC(F)(F)F)cc2)c1=O	3.3%	1.4%	3.6%	-11.7%	-19.8%	2.8%	-13.0%	-12.8%
Cc1ccc(S(=O)(=O)Nc2cccc(-c3ccc(N4CCC(C)CC4)nn3)c2)s1	.	-4.3%	.	.	-20.9%	.	-28.9%[46.1 µM]	-13.1%
COc1cc(Cl)c(CN2CCC(CCC(=O)NC3CC3)CC2)cc1OC	7.5%	.	2.1%	.	-7.2%	3.6%	.	.
CCOC(=O)Cc1cnc(N)s1	.	.	-2.7%	?	-8.8%	-10.1%	19.0%[46.1 µM]	.
Cc1ccc(OCC(=O)Nc2ccc(CN3CCCCC3)cc2)c(C)c1	0.1%	.	0.3%	?	-21.6%	-11.4%	?	.
CCn1c(SCC(=O)Nc2cccc(NC(C)=O)c2)nc2c([nH]c3ccccc32)c1=O	-2.4%	.	-1.2%	?	?	-24.1%	-29.8%	.
O=C(Nc1ccccc1F)Nc1ccccc1Br	-3.2%	.	-0.6%	.	15.8%	-26.8%	.	.
CC1CCCN(C(=O)CCl)C1 (configuration not stated)	-1.9%	0.7%	14.0%	24.7%	-23.8%	13.9%	-10.0%	13.3%
CCOc1nc(C)ccc1-c1noc(C)n1	1.7%	5.0%	9.2%	2.4%	27.2%	2.5%	-17.8%[14.3 µM]	6.9%
Cc1ccc(N2C(=O)C3CCC(C)(C2=O)C3(C)C)cc1C (configuration not stated)	2.0%	.	1.0%	2.6%	-5.5%	10.1%	?	.
CC(C)N(C(=O)/C=C/c1cccc([N+](=O)[O-])c1)C(C)C	-4.2%	.	0.8%	.	-3.2%	3.3%	.	.
S=C(NCc1ccc(Cl)cc1)NC1CCN(Cc2ccccc2)CC1	-1.3%	.	4.7%	6.31µM*	-25.0%	-15.8%	?	.
Cn1c(-n2cccc2)c(-c2c(-c3ccc(F)cc3)[nH]c3c2c(=O)n(C)c(=O)n3C)c(=O)n(C)c1=O	.	-1.2%	.	8.8%[46.1 µM]	-15.1%	.	15.5%[46.1 µM]	0.2%
O=C1N(Cc2cccc(Cl)c2)C[C@@H]2C[C@@H](c3cccc4cccnc34)N3CCC[C@@]123	1.1%	.	-0.2%	?	-1.9%	0.5%	-19.7%[46.1 µM]	.
CCOc1ccc(S(=O)(=O)NCCC(=O)NCc2ccco2)cc1	2.1%	-1.9%	.	17.7%	-0.9%	18.0%	-4.8%	-2.7%
COc1ccccc1NC(=O)CSc1nnc(COc2ccccc2OC)n1C	-5.7%	.	0.4%	.	-11.3%	2.0%	.	.
CCC(=O)c1ccc(OCC(=O)Nc2ccccc2C(=O)N2CCCCC2)cc1	.	.	1.3%	2.0%[46.1 µM]	?	-1.4%	?	.

The list goes on.
SMILES	NS1 function inh	Cruzain Triton	SARS PLpro yeast	MARV entry inh	StopGo reporter	RE007 growth inh	LASV entry inh	Cruzain noTriton
CCN(CC(=O)NC(=O)NCc1ccco1)Cc1ccccc1	.	.	-1.4%	-5.4%[46.1 µM]	-13.1%	10.0%	-18.8%	.
Cc1c(C(=O)NC2CCS(=O)(=O)C2)oc2ccccc12 (configuration not stated)	31.2%	.	0.6%	6.3%[46.1 µM]	5.4%	0.0%	3.7%	.
O=C(NCC1CCCO1)C(c1ccncc1)N(Cc1ccc(F)cc1)C(=O)CN1C(=O)c2ccccc2S1(=O)=O (configuration not stated)	-11.5%	-1.1%	3.9%	0.4%	13.2%	-10.2%	-1.0%	11.8%
Cc1ccc(/C=C/C(=O)N2CC(C)CC(C)C2)o1 (configuration not stated)	-17.0%	-1.9%	-10.6%	-10.2%	-31.8%	?	-1.8%	14.5%
COC(=O)c1cc(=O)n(Cc2ccc3c(c2)OCO3)c(=Nc2ccccc2)s1	-11.2%	1.0%	-6.2%	-0.4%	35.5µM*	2.8%	.	?
COc1ccccc1C(CNc1ncnc2sc(C)c(C)c12)N(C)C (configuration not stated)	7.7%	.	-0.2%	?	-6.7%	-10.0%	3.7%	.
Cc1cc(C)c(NC(=O)c2cc(S(=O)(=O)N3CCOCC3)ccc2F)c(C)c1	9.4%	.	?	.	1.5%	-3.2%	.	.
CC1CCCN(S(=O)(=O)c2ccc3c(c2)CCN3C(=O)CCC(=O)O)C1 (configuration not stated)	.	2.6%	.	13.0%[46.1 µM]	7.1%	.	7.0%[46.1 µM]	-0.7%
O=C(CN1CCN(c2ccccc2)CC1)N/N=C/c1cccc(F)c1	-6.2%	-3.2%	9.0%	?	-19.0%	.	1.8%	5.1%
CCCCCc1ccc(-c2cn(Cc3ccc([N+](=O)[O-])cc3)nn2)cc1	8.9%	.	-0.6%	.	-13.4%	2.8%	.	.
